# Screening data as filed in PubChem BioAssay.
# Mtb hypoxia rep = inhibitors of hypoxia-regulated fluorescent reporter in Mycobacterium tuberculosis; M. tuberculosis hypoxia-regulated fluorescent reporter, fluorescence; fluorescence inhibition, % (concentration not given with the values); actives 0.1% (n = 300,000); AID 1159583;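 active means 35 to 45% if threefold the growth effect, above 45% if 1.5-fold the growth effect; inactive means the rest, general growth blockers included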;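 further: wells of about 50 µL received 100 nL stock; 0% = vehicle wells and 100% = reference inhibitor wells; whole bacteria with a GFP reporter of the hypoxia response; strong numbers were not always called active; many hits fall short of the cut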
# PrP UTR inh = inhibition of PrP 5' UTR reporter expression. cell-based PrP 5' UTR mRNA reporter, plate reader. inhibition, % (no concentration beside the values). actives 0.35% (n = 340,000). AID 488862;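 active means every replicate at 50% or more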;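 further: 0 = median of the neutral control wells; tested in H4 reporter cells; numbers are from one replicate; inactives centre near -14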
# Sa ugtP lethal = kills S. aureus RN4220 lacking UgtP | growth inhibition, % (no concentration beside the values) | actives 0.54% (n = 330,000) | S. aureus RN4220 ugtP deletion, OD600 growth, 16 h; some inactives read as strong as hits;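 active means z-score under -3 and OD600 up to 0.15 on both plates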;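 further: plate controls were untreated wells for no effect and antibiotic for full effect; wells of about 80 µL received 100 nL stock; the first replicate is given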
# Bead autofluor = compound fluorescence in toxin protease inhibitor counterscreen. compound autofluorescence counterscreen, microsphere flow cytometry; stronger effect = higher value. fluorescence intensity (no concentration beside the values). actives 3.1% (n = 360,000). AID 624483;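 active means at least 3 SD above the mean of all compounds, about 16000 in these data; inconclusive means too few beads counted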;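 further: 100 nL of 1 mM stock went into each well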
# Sa RN4220 lethal = S. aureus RN4220 growth inhibition | OD600, 16 h | inhibition, % (test concentration not listed) | actives 0.33% (n = 330,000);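 active means z-score of -3 or lower and OD600 up to 0.18 on both plates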;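 further: plate controls were untreated cells for no effect and reference antibiotic for full effect; stock transfer was 100 nL into about 80 µL; one replicate is shown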
# BJeLR viability = BJeLR cell viability loss; AID 1554; inhibition, % (no concentration beside the values); actives 0.17% (n = 300,000); BJeLR (HRASV12) viability, CellTiter-Glo ATP luminescence, 48 h; reference of the scale not given here;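 active means replicate mean above 50%; inconclusive means above 50% but judged a plate artefact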;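 further: 50 nL library stock added to about 25 µL; numbers are from one replicate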
# Mtb hypoxia rep growth = also measured in Mtb hypoxia rep; calls as there; growth inhibition, %; measured here: M. tuberculosis growth (absorbance);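 0% = vehicle and 100% = reference antibiotic; read after six days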
# Active calls of the source: *; ? = inconclusive; nt = no result given.
1: COCCCNC(=O)/C=C/c1ccc(OCc2c(F)cccc2Cl)cc1
2: CCOC(=O)c1cc(N2CCCCC2)nc2ccccc12
3: CC(=O)Oc1ccc2c(=O)c(-c3ccccc3)c(C)oc2c1
4: CCC1(C)Cc2ccccc2-c2nc(NCCCO)n(-c3ccccc3)c(=O)c21 (stereo not drawn)
5: CCOC(=O)[C@]1(C#N)[C@@H]2C=CC(C(N)=O)=CN2[C@@H](C(N)=O)[C@@H]1c1ccc(F)cc1
6: Cc1ccc(NC(=S)N/N=C/c2c(C)[nH]c3ccccc23)cc1

screen / no.,1,2,3,4,5,6
Mtb hypoxia rep,23,4,nt,1,-5,nt
Mtb hypoxia rep growth,5,6,nt,5,12,nt
PrP UTR inh,-1,-11,-32,-15,-5,-19
Sa ugtP lethal,4,12,-11,6,-1,nt
Bead autofluor,4362,3508,5518,?,4366,8761
Sa RN4220 lethal,2.1,1.9,7.5,2.1,2.3,nt
BJeLR viability,-12,nt,-8,8,-3,2

7: COc1ccc(OC)c(NC(=O)CSc2nc(O)cc(=O)n2CC(C)C)c1
8: O=C1/C(=C\c2ccccn2)SC(=S)N1Nc1ncc(C(F)(F)F)cc1Cl
9: CSc1cccc(NC(=O)NNC(=O)C2CCN(S(=O)(=O)N(C)C)CC2)c1
10: COc1ccc(C(=O)N[C@H](C(=O)NC2CCCCC2)C(C)C)cc1
11: Cc1ccc(S(=O)(=O)n2cccc2CO)cc1
12: CN(C)/C=C/c1onc(-c2ccccc2Cl)c1C#N

screen / no.,7,8,9,10,11,12
Mtb hypoxia rep,-1,7,1,-1,nt,nt
Mtb hypoxia rep growth,2,4,2,6,nt,nt
PrP UTR inh,-8,-3,1,0,-19,-51
Sa ugtP lethal,-4,-6,4,3,nt,nt
Bead autofluor,3981,22887*,4391,4152,3074,2562
Sa RN4220 lethal,0.3,4.9,1.1,0.3,nt,nt
BJeLR viability,nt,-2,4,nt,-3,-8

13: Cc1ccc(-c2n[nH]c(=S)n2N=Cc2c(C)nn(-c3ccccc3)c2C)cc1
14: CC1CCCC(NC(=O)CCn2c(=O)oc3ccccc32)C1C (stereo not drawn)
15: CC(C)C1OC(c2cccc(NC(=O)c3cccs3)c2)OCC1(C)C (stereo not drawn)
16: O=C(Nc1cc(Cl)ccc1N1CCOCC1)c1ccc(Br)o1
17: COc1cccc(C2C(C#N)=C(N)Oc3cc(C)oc(=O)c32)c1OC (stereo not drawn)
18: CCC(=O)NC(c1cc(Cl)c2cccnc2c1O)C1CC1 (stereo not drawn)

screen / no.,13,14,15,16,17,18
Mtb hypoxia rep,1,-4,-4,-1,nt,9
Mtb hypoxia rep growth,-2,14,0,1,nt,-9
PrP UTR inh,nt,1,-16,-15,1,-1
Sa ugtP lethal,-16,2,-3,0,-8,16
Bead autofluor,nt,22573*,4386,5598,3038,3818
Sa RN4220 lethal,6.6,-1.5,3.4,5.4,-1.7,-5.7
BJeLR viability,nt,1,-16,-2,3,nt

19: Nc1cc(N)nc(SCc2ccccc2)n1
20: O=S(=O)(c1ccccc1)N1CCC2(CC1)CO2
21: CCc1nnc(NC(=O)CC23CC4CC(CC(Br)(C4)C2)C3)s1
22: Cn1ncc2c(ON=C(N)c3ccc(C(F)(F)F)cc3)ncnc21
23: COc1ccc(C=NNC(=O)C2C3CCCCC32C)cc1OC (stereo not drawn)
24: CCOC(=O)c1sc(NC(=O)CSc2nc3c(c(-c4ccc(OC)cc4)c2C#N)CCCC3)c(C#N)c1C

screen / no.,19,20,21,22,23,24
Mtb hypoxia rep,-5,-5,-4,1,6,nt
Mtb hypoxia rep growth,7,0,2,-1,21,nt
PrP UTR inh,-60,-28,-20,nt,nt,-4
Sa ugtP lethal,-7,0,10,1,1,3
Bead autofluor,9254,12845,5174,nt,nt,2689
Sa RN4220 lethal,-1.6,2.7,8.1,2.1,2.4,0.9
BJeLR viability,-2,0,-7,nt,nt,-2

# Fetched by compound from above (four):
21: CCc1nnc(NC(=O)CC23CC4CC(CC(Br)(C4)C2)C3)s1
24: CCOC(=O)c1sc(NC(=O)CSc2nc3c(c(-c4ccc(OC)cc4)c2C#N)CCCC3)c(C#N)c1C
19: Nc1cc(N)nc(SCc2ccccc2)n1
23: COc1ccc(C=NNC(=O)C2C3CCCCC32C)cc1OC (stereo not drawn)

screen / no.,21,24,19,23
Mtb hypoxia rep,-4,nt,-5,6
Mtb hypoxia rep growth,2,nt,7,21
PrP UTR inh,-20,-4,-60,nt
Sa ugtP lethal,10,3,-7,1
Bead autofluor,5174,2689,9254,nt
Sa RN4220 lethal,8.1,0.9,-1.6,2.4
BJeLR viability,-7,-2,-2,nt

# 2 compounds from above, reduced to PrP UTR inh, Bead autofluor and Sa RN4220 lethal.
item	compound	PrP UTR inh	Bead autofluor	Sa RN4220 lethal
23	COc1ccc(C=NNC(=O)C2C3CCCCC32C)cc1OC (stereo not drawn)	nt	nt	2.4
24	CCOC(=O)c1sc(NC(=O)CSc2nc3c(c(-c4ccc(OC)cc4)c2C#N)CCCC3)c(C#N)c1C	-4	2689	0.9

# Additional structures:
25: COc1cc(C=NN2C(=O)C3C4C=CC(CC4)C3C2=O)ccc1O (stereo not drawn)
26: COc1ccccc1NC(=O)Nn1cnnc1
27: Cc1ccc(NC(=O)NCC2CCN(Cc3cccc(Cl)c3)CC2)cc1Cl
28: CCOC(=O)c1[nH]c2ccc(Br)cc2c1NC(=O)CCN1CCC(C(=O)OCC)CC1
29: c1ccc(C2=NNC(c3ccco3)=Nc3ccccc32)cc1
30: Cc1cc(OCC(=O)Nc2cccc(S(=O)(=O)N3CCCC3)c2)ccc1Cl

screen / no.,25,26,27,28,29,30
Mtb hypoxia rep,3,8,2,nt,5,2
Mtb hypoxia rep growth,1,3,14,nt,3,4
PrP UTR inh,nt,-11,-8,-3,-4,10
Sa ugtP lethal,-3,3,-18,-13,-10,-12
Bead autofluor,nt,2430,5409,4601,3266,nt
Sa RN4220 lethal,7.4,2.4,-2.3,-0.7,-1.1,-3.3
BJeLR viability,nt,-10,11,0,3,nt

31: O=C(C=Cc1ccc(Cl)c([N+](=O)[O-])c1)Nc1cccc(NC(=O)c2ccco2)c1
32: O=C(Nc1ccc(N2CCOCC2)c(Cl)c1)c1cccc(-n2cnnc2)c1
33: Cc1onc(-c2ccccc2)c1C(=O)NC(=S)NNC(=O)c1ccc(O)cc1
34: CC1CCCCN1CC(O)COCc1ccccc1 (stereo not drawn)
35: Cc1ccc(C)c(-n2c(-c3ccc(Br)cc3)csc2=NC(=O)c2ccccc2F)c1
36: Cc1ccc(-c2csc3ncnc(OCC(=O)NC(=O)NCc4ccco4)c23)cc1

screen / no.,31,32,33,34,35,36
Mtb hypoxia rep,1,-6,-5,17,-1,-1
Mtb hypoxia rep growth,3,-7,1,2,19,0
PrP UTR inh,nt,-22,-9,-4,-13,-14
Sa ugtP lethal,-24,3,-9,13,12,9
Bead autofluor,nt,5225,2027,3152,4136,10641
Sa RN4220 lethal,5.7,-0.5,29,0.9,-13,15
BJeLR viability,nt,1,11,1,-8,-16

37: O=S(=O)(O/N=C1\CCCc2ccccc21)c1ccccc1
38: Cc1nonc1C1CCCN1Cc1nc(-c2ccc(F)cc2F)oc1C (stereo not drawn)
39: Cc1ccc(/C=[N+](/[O-])C2SC(=S)N(C)C2(C)C)cc1 (stereo not drawn)
40: COc1ccc(OCc2cc(C(=O)NC(C)Cn3cncn3)no2)c(Cl)c1 (stereo not drawn)
41: Cc1nc2ccccc2n1C(=O)c1cc(-c2ccc(Br)cc2)nc2ccccc12
42: COc1ccc(C(=O)c2c(-c3ccc(OC)cc3)oc3ccc(-c4cc(OC)c(OC)c(OC)c4)cc23)cc1

screen / no.,37,38,39,40,41,42
Mtb hypoxia rep,nt,10,nt,1,nt,7
Mtb hypoxia rep growth,nt,9,nt,-20,nt,17
PrP UTR inh,3,-27,-6,-13,-20,-4
Sa ugtP lethal,nt,7,6,5,-4,36
Bead autofluor,3613,4201,4778,4951,4205,3772
Sa RN4220 lethal,nt,15,-0.7,2.9,19,4.2
BJeLR viability,-1,4,-4,-1,4,10

43: COc1ccc(N(CC(=O)Nc2ccc3c(c2)OCCO3)S(=O)(=O)c2c(C)nn(C)c2C)cc1
44: COC(=O)C(C)Sc1nc2c(cnn2-c2ccccc2)c(=O)[nH]1 (stereo not drawn)
45: Cc1ccc(C2CC2C(=O)NN)cc1 (stereo not drawn)
46: CSc1ccc(C(=S)N2CCCCCC2)cc1
47: Cc1nc(SCC(=O)NCc2ccco2)c2c(C)c(C)sc2n1
48: CCN(CC)C(=S)Oc1ccc(Cl)cc1Cl

screen / no.,43,44,45,46,47,48
Mtb hypoxia rep,nt,-3,-1,-1,-2,16
Mtb hypoxia rep growth,nt,0,-1,7,8,9
PrP UTR inh,5,1,nt,-19,2,-17
Sa ugtP lethal,20,-13,0,2,1,19
Bead autofluor,4632,4638,10105,3129,4499,3837
Sa RN4220 lethal,4.6,-0.9,-1.4,3.7,4.9,6.5
BJeLR viability,-13,-9,0,-8,-11,2

49: Cc1nn(CCCC(=O)NCc2ccccc2)c(=O)c2nn(-c3ccccc3)c(C)c12
50: CC(C)Sc1nc2ccccc2n1CC(N)=O
51: COc1ccccc1N1C(=O)CC(Sc2nccc(C)n2)C1=O (stereo not drawn)
52: COc1ccc(CCNC(=O)CCc2ccccc2)cc1OC
53: COCCn1c(N)c(N(Cc2ccccc2)C(=O)CN2C(=O)NC(C)(c3ccccc3)C2=O)c(=O)[nH]c1=O (stereo not drawn)
54: COc1ccc(C(=O)NCCCOC(=O)c2ccc(OC)cc2)cc1

screen / no.,49,50,51,52,53,54
Mtb hypoxia rep,7,6,nt,5,4,1
Mtb hypoxia rep growth,-1,4,nt,-6,5,0
PrP UTR inh,-4,-38,-24,nt,0,-14
Sa ugtP lethal,5,2,3,0,6,4
Bead autofluor,5708,9202,4855,5978,5773,6008
Sa RN4220 lethal,1.9,-0.5,2.3,0.3,0.0,3.1
BJeLR viability,-14,-5,-6,2,-5,-3

# The list goes on; it opens with the 2 that closed the last part.
53: COCCn1c(N)c(N(Cc2ccccc2)C(=O)CN2C(=O)NC(C)(c3ccccc3)C2=O)c(=O)[nH]c1=O (stereo not drawn)
54: COc1ccc(C(=O)NCCCOC(=O)c2ccc(OC)cc2)cc1
55: CC1CCC2(CC1)Nc1ccccc1C(=O)N2c1ccccc1 (stereo not drawn)
56: COc1ccc(CC(NC(C)=O)C(=O)NC2CCN(C(=O)Nc3ccc(Cl)cc3)CC2)cc1OC (stereo not drawn)
57: O=C(NCc1ccc(F)cc1)C1(c2cccs2)CCOCC1
58: COc1ccccc1C1c2[nH]c3ccccc3c2CCN1Cc1cnc(C)s1 (stereo not drawn)
59: Cc1ccc(C=NNC(=O)c2ccncc2)o1
60: COc1ccc(NC(=S)N/C(=N/S(=O)(=O)c2ccc(C)cc2)c2ccccc2)cc1

screen / no.,53,54,55,56,57,58,59,60
Mtb hypoxia rep,4,1,nt,1,4,-2,nt,nt
Mtb hypoxia rep growth,5,0,nt,1,9,-3,nt,nt
PrP UTR inh,0,-14,-62,-11,-18,-25,nt,-58
Sa ugtP lethal,6,4,-1,3,-1,9,5,nt
Bead autofluor,5773,6008,4232,3152,7507,4395,nt,4184
Sa RN4220 lethal,0.0,3.1,0.5,0.6,4.0,0.4,7.0,nt
BJeLR viability,-5,-3,-5,-2,-1,0,nt,-6

61: O=C(CN1CCC(c2nc3ccccc3[nH]2)CC1)Nc1ccc2c(c1)OCO2
62: Cc1ccc(C(=O)N/N=C2\SCC(=O)N2c2cc(C)ccc2C)cc1
63: O=C(Cc1ccccc1)Nc1nnc(-c2cccs2)s1
64: Cc1ccc(-c2csc(NC(=O)Cn3[nH]c(=O)c4ccccc4c3=O)n2)cc1
65: O=C(Oc1ccc(C=NNc2ccccc2)cc1)c1ccccc1
66: O=C(C1=C[C@@H](c2ccc(Br)cc2)C[C@@H](OCc2ccc(CO)cc2)O1)N1CCN(Cc2ccccc2)CC1
67: COc1ccc(-c2oc(=O)c3cc(OC)c(OC)cc3c2-c2ccc3c(c2)OCO3)cc1
68: Cc1ccc(CN(C)C(=O)c2cc(COc3ccc(F)cc3Cl)on2)o1

screen / no.,61,62,63,64,65,66,67,68
Mtb hypoxia rep,2,nt,nt,12,-6,nt,7,-2
Mtb hypoxia rep growth,1,nt,nt,5,2,nt,4,-6
PrP UTR inh,-5,-11,-23,-35,nt,-4,-28,-30
Sa ugtP lethal,9,nt,-3,50,-8,nt,13,-16
Bead autofluor,21412*,2955,3756,2298,nt,4041,5153,4230
Sa RN4220 lethal,-1.5,nt,-4.7,18,-1.1,nt,15,9.3
BJeLR viability,nt,2,-22,-10,nt,5,nt,6
